High-throughput results deposited in PubChem by Broad Institute.
FGF22 binding = shifts melting point of recombinant human FGF22. recombinant FGF22 thermal shift, SYPRO orange fluorescence; percent of sucrose octasulfate shift, DMSO zero. calls only at 9.99 µM. 1.5% of 340,000 active;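 active = melting point raised past a set limit in the mean and every replicate; three in four hits are not shown here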
Target sequence (Q9HCT0 whole entry, looked up): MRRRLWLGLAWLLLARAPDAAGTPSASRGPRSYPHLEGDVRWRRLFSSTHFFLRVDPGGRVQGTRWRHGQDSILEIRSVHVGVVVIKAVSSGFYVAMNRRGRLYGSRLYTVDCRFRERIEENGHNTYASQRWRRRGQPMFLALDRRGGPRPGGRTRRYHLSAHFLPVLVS
AF4-AF9 inh = inhibitors of human MLL-AF4/AF9 interaction | AID 651704 | P42568 | AlphaScreen, biotin-AF4 peptide binding to FLAG-AF9 | 0.47% of 350,000 active | inhibition, % at 10 µM;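 active = every replicate reaching a set inhibition limit, whatever the replicate mean, cut at about 25% in these data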;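 note: 0% = plate neutral control median and 100% = total signal loss; the record names both 10 and 1 µM as test concentration; the first replicate is given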
Target sequence (P42568 whole entry, looked up): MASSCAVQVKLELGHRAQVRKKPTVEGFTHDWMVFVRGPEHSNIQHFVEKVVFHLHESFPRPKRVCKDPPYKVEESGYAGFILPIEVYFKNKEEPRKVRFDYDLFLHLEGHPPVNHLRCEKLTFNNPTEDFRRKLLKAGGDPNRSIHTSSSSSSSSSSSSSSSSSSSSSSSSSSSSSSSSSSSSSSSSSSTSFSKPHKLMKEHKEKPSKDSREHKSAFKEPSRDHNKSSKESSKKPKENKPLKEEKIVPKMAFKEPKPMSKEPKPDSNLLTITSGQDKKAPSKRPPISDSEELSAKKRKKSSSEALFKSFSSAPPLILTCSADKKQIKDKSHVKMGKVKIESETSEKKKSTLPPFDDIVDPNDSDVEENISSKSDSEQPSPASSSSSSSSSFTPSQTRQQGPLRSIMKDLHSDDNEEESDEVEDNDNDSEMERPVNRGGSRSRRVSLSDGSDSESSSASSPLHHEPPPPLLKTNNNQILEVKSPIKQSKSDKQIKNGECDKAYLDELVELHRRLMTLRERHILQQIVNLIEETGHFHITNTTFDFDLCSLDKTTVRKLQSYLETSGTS
rRNA inh HTS = selective bacterial rRNA inhibition in E. coli. GFP signal change (wild-type ribosome), % (test concentration not listed). 1.6% of 350,000 active. E. coli WT GFP vs humanized-ribosome RFP mutants, fluorescence, 24 h; hits give low values; DMSO median 0, no signal -100;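 active = significant combined selectivity score with lowered wild-type GFP, culture density cut under 30%, mutant RFP and density less affected; inactive = any of these conditions unmet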; note: one replicate is shown; some compounds called inactive have numbers as strong as hits
rRNA inh HTS OD600 = recorded beside rRNA inh HTS, whose call it bears; OD600 change, %; measured here: OD600 growth;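 optical density of the mix in the first replicate; 0 = DMSO median and -100 = no signal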
rRNA inh HTS RFP = further read-out of rRNA inh HTS, marked with its call; RFP signal change, %; measured here: RFP humanized mutant strains;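 first replicate; 0 = DMSO median and -100 = no signal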
Active calls of the source: *; i = inactive; + = active, no number; & = joins results of further samples.

AF4-AF9 inh | rRNA inh HTS | FGF22 binding | rRNA inh HTS RFP | molecule | rRNA inh HTS OD600
-1.9 | 0.9 | i | 0.2 | C[C@H]1CN([C@@H](C)CO)C(=O)CCCn2cc(nn2)CO[C@@H]1CN(C)Cc1ccc2c(c1)OCO2 | -0.7
-0.3 | -2.5 | i | 1.4 | C[C@@H]1CCCCO[C@H](CN(C)C(=O)Nc2ccccc2)[C@H](C)CN([C@H](C)CO)C(=O)c2cc(NC(=O)c3ccccc3)ccc2O1 | 3.3
1.1 | 4.3 | i | -1.7 | COc1cccc(CNC(=O)C[C@@H]2CC[C@H](NC(C)=O)[C@H](CO)O2)c1 | 17.3
-0.3 | -4.3 | i | 0.0 | COc1ccc(CNC(=O)CSC(=S)N2CCCC2)cc1 | 3.7
0.0 | 4.3 | i | 2.1 | COc1ccccc1Cc1c(-c2ccco2)nc2cc(C)c(Br)c(C)n12 | 1.6
-0.9 | -1.0 | i | -2.3 | CC(C)[C@@H](C)NC(=O)N(C)C[C@H]1OCc2ccccc2-c2c(n(C)c3ccccc23)C(=O)N([C@H](C)CO)C[C@H]1C | -3.0
0.2 | 0.2 | + | 1.6 | CC(C)N(C[C@H]1N[C@H](CO)[C@H]1c1ccccc1)S(=O)(=O)c1ccccc1 | 1.8
4.9 | -11.3 | i | 6.1 | O=C(C[C@H]1C[C@@H]2c3cc(NC(=O)Nc4ccccc4)ccc3O[C@@H]2[C@@H](CO)O1)NC1CCCCC1 | -27.1
-2.2 | -11.9 | i | -1.2 | C[C@@H]1CN([C@H](C)CO)C(=O)c2cc(-c3ccc(F)cc3)cnc2O[C@H]1CN(C)C(=O)Cc1ccccc1 | -10.6
3.5 | -5.4 | i | 4.0 | C[C@H](CO)N1C[C@H](C)[C@@H](CN(C)Cc2ccc(C(F)(F)F)cc2)Oc2ccc(NC(=O)Cc3ccccc3)cc2CC1=O | -7.0
2.3 | -3.4 | i | 3.8 | C[C@H]1CN([C@@H](C)CO)C(=O)c2cc(C#CC3CCCCC3)cnc2O[C@H]1CN(C)Cc1cccnc1 | -21.1
-3.4 | 17.9 | i | 4.2 | CN(C)C(=O)c1ccc(Cc2cn(C)c3ccccc23)nc1 | 15.1
-0.6 | 8.7 | i | 0.8 | Cc1ccsc1-c1cc2nc(Nc3ccc(F)cc3)n(C)c(=O)c2s1 | 33.0
1.7 | -2.6 | i | 4.9 | O=C(C[C@H]1CC[C@H]2[C@@H](COC[C@@H](O)CN2C(=O)c2ccccc2F)O1)NCc1ccc(-c2ccccc2)cc1 | -2.5
1.6 | -3.2 | i | 1.6 | C[C@@H]1CN([C@@H](C)CO)S(=O)(=O)c2ccc(-c3cccc(F)c3)cc2O[C@H]1CN(C)C(=O)c1cccc(F)c1 | -14.4
-2.7 | -4.0 | i | -3.0 | O=C(C[C@@H]1CC[C@@H]2[C@H](COC[C@H](O)CN2C(=O)c2ccccc2F)O1)NCc1ccc(F)cc1 | -4.5
6.2 | -2.9 | i | -2.2 | O=C(C[C@H]1C[C@@H]2c3cc(NC(=O)c4ccc5c(c4)OCO5)ccc3O[C@@H]2[C@H](CO)O1)NCc1ccccn1 | 7.0
0.4 | -1.2 | i | -0.1 | CCS(=O)(=O)Nc1ccc2c(c1)C(=O)N(C)C[C@H](OC)[C@H](C)CN(CC1CCCCC1)[C@@H](C)CO2 | 0.8
-2.5 | -0.1 | i | 0.2 | CC(C)NC(=O)N(C)C[C@H]1Oc2c(NC(=O)Nc3ccc(F)cc3)cccc2C(=O)N([C@@H](C)CO)C[C@@H]1C | 0.8
-0.5 | -3.4 | i | -0.5 | CO[C@@H]1CN(C)C(=O)c2ccc(NC(=O)C3CCC3)cc2OC[C@H](C)N(Cc2cccnc2)C[C@H]1C | -3.4
-1.7 | -0.6 | i | -3.0 | C[C@@H]1CN([C@@H](C)CO)C(=O)c2cc(NC(=O)CCC(F)(F)F)ccc2O[C@@H]1CN(C)S(=O)(=O)c1ccccc1 | 1.2
-1.8 | 10.6 | i | -5.3 | C[C@@H]1Cn2cnc(C(=O)NCC(=O)OC(C)(C)C)c2C(=O)N1 | 16.9
0.3 | -10.2 | i | 0.4 | CN1C(=O)c2cc(NC(=O)c3ccc(Cl)cc3)ccc2OC[C@@H]2O[C@@H](CC(=O)NCc3cccc(F)c3)CC[C@H]21 | -14.6
0.9 | -3.4 | i | -0.6 | C[C@H](CO)N1C[C@H](C)[C@H](CN(C)Cc2ccc(C(F)(F)F)cc2)Oc2c(cccc2N(C)C)C1=O | -1.4
1.2 | 1.9 | i | 3.7 | C[C@H]1CN([C@@H](C)CO)C(=O)c2cccc(NC(=O)Nc3cccc4ccccc34)c2O[C@H]1CN(C)Cc1ccc(Oc2ccccc2)cc1 | 0.4
2.3 | -1.1 | i | -0.1 | COc1ccc(CN(C)C(=O)/C=C/[C@H]2O[C@@H](n3cc(C)c(=O)[nH]c3=O)C[C@@H]2O)cc1OC | 6.3
-1.1 | 3.5 | i | -3.2 | C[C@@H]1CN([C@@H](C)CO)C(=O)c2cc(C#CC3(O)CCCC3)cnc2O[C@@H]1CN(C)C(=O)C1CCC1 | 4.7
-1.8 | -16.9 | i | -7.5 | O=C(O)CCC(=O)c1ccc2sc3ccccc3c2c1 | -60.9
-0.5 | -0.4 | i | -0.9 | CC(C)NC(=O)Nc1cccc2c1O[C@@H](CN(C)C(=O)Nc1ccc3c(c1)OCO3)[C@@H](C)CN([C@H](C)CO)C2=O | 11.8
4.2 | 3.9 | i | -1.3 | C[C@@H]1CN([C@H](C)CO)C(=O)c2c(c3ccccc3n2C)-c2ccccc2CO[C@@H]1CN(C)S(=O)(=O)c1cccc(C#N)c1 | 8.7
-2.2 | 0.5 | i | 1.1 | CO[C@@H]1CN(C)C(=O)c2ccc(NC(=O)Nc3cc(F)ccc3F)cc2OC[C@@H](C)N(C(=O)c2ccccn2)C[C@H]1C | 0.3
-8.2 | -5.3 | i | -13.7 | Cc1nc(N)nc(N)c1Oc1ccc(Cl)cc1 | -14.4
0.3 | -2.0 | i | 2.0 | O=C(Nc1ccc(-c2ccccc2)cc1)[C@H]1[C@H](CO)[C@H]2Cn3c(cccc3=O)[C@@H]1N2Cc1cccnc1 | -14.3
0.0 | -4.1 | i | -1.6 | C[C@H]1CN([C@@H](C)CO)C(=O)c2cc(NC(=O)Nc3cccc4ccccc34)ccc2O[C@@H]1CN(C)Cc1ccc(C(=O)Nc2ccccc2N)cc1 | 4.4
-1.9 | -0.2 | i | 1.4 | COc1ccc(-c2ccc3c(c2)O[C@@H](CN(C)C(C)=O)[C@H](C)CN([C@H](C)CO)S3(=O)=O)cc1 | -3.3
1.8 | -18.5 | i | -8.8 | O=C1c2ccccc2-c2n[nH]c3cccc1c23 | -48.8
-3.1 | 1.6 | i | 0.5 | CCCNC(=O)N(C)C[C@@H]1Oc2ncc(C#C[C@H](C)O)cc2C(=O)N([C@H](C)CO)C[C@@H]1C | -2.3
-3.5 | 2.6 | i | -1.8 | C/C=C/c1ccc([C@H]2[C@H](CO)N(C(=O)c3cnccn3)C23CN(C(=O)CC)C3)cc1 | 10.6
-0.4 | -1.5 | i | 4.1 | COC(=O)[C@]12C[C@H](CC(=O)N3CCOCC3)C(=O)N(Cc3ccc4c(c3)OCO4)C1=C[C@H](COCc1ccccc1)O[C@@H]2C | -3.4
0.6 | 3.8 | i | -5.3 | CO[C@H]1CC[C@@H]2CCOc3ccc(C#N)cc3C(=O)N(C)C[C@@H](OC)[C@@H](C)C(=O)N(C)C[C@@H]1O2 | 11.2
11.4 | 3.3 | i | 7.1 | C[C@H](CO)N1C[C@H](C)[C@@H](CN(C)Cc2ccc3c(c2)OCO3)Oc2ccc(NC(=O)Nc3ccc4c(c3)OCO4)cc2C1=O | -8.8
-8.0 | -2.1 | i | 28.1 | COc1ccccc1-c1cc(NC=O)c2ncc(-c3cccc(C(C)=O)c3)n2c1 | 0.6
0.0 | 3.4 | i | -3.7 | C=CCCC1CN(Cc2ccc(OC)cc2)S(=O)(=O)c2c(Oc3ccc(F)cc3OC)cccc2O1 (configuration not stated) | 13.2
-2.1 | 0.4 | i | 0.3 | C[C@@H]1CN([C@@H](C)CO)C(=O)c2cccc(NS(=O)(=O)c3ccc(F)cc3)c2O[C@H]1CN(C)Cc1ccc(C(=O)Nc2ccccc2N)cc1 | 4.1
3.5 | 0.0 | i | 2.1 | COCC(=O)Nc1ccc2c(c1)[C@@H]1C[C@H](CC(=O)N[C@H](C)c3ccccc3)O[C@@H](CO)[C@@H]1O2 | 0.7
0.7 | 14.7 | i | 1.9 | O=C(NCCN1CCC(n2c(=O)[nH]c3ccccc32)CC1)c1ccc(F)c(F)c1 | 15.7
-1.8 | -0.3 | i | -3.9 | C[C@H](CO)N1C[C@H](C)[C@@H](CN(C)S(=O)(=O)c2cn(C)cn2)OCCCC[C@H](C)Oc2ccc(NC(=O)CCCN(C)C)cc2C1=O | 0.4
-3.2 | -4.3 | i | 4.9 | COc1cccc(NC(=O)N(C)C[C@H]2Oc3ncc(C#Cc4ccc(F)cc4)cc3C(=O)N([C@@H](C)CO)C[C@@H]2C)c1 | -9.8
17.0 | 2.9 | i | 1.3 | CCCN1CCC2(CC1)CN(Cc1ccccc1OC)[C@H](CO)c1c2c2ccc(OC)cc2n1C | 7.9
-0.6 | 4.5 | i | 1.4 | O=C(COC(=O)c1ccc(F)cc1Cl)NCc1ccco1 | 16.5
1.8 | 5.2 | i | -2.6 | C[C@@H]1CN([C@@H](C)CO)C(=O)c2cc(C#CCN(C)C)cnc2O[C@@H]1CN(C)C(=O)Nc1cccc(F)c1 | 2.4
0.0 | 5.2 | i | 2.7 | CCC1Oc2ccccc2N(CC(=O)N2CCCC2)C1=O (configuration not stated) | 9.8
-13.9 | -2.8 | i | -4.4 | O=c1oc2cc(O)ccc2cc1-c1nc2ccccc2o1 | -9.0
-2.9 | -1.4 | i | -0.1 | O=C(C[C@H]1C[C@@H]2c3cc(NC(=O)c4ccc5c(c4)OCO5)ccc3O[C@@H]2[C@H](CO)O1)NCc1cccc(F)c1 | 3.7
-1.2 | -4.5 | i | 0.9 | Cc1noc(C)c1NC(=O)Nc1ccc2c(c1)C(=O)N([C@@H](C)CO)C[C@@H](C)[C@@H](CN(C)S(=O)(=O)c1cccs1)OCCCC[C@@H](C)O2 | -6.2
-5.2 | 1.2 | i | -0.6 | Cc1noc(C)c1NC(=O)Nc1ccc2c(c1)CC(=O)N([C@H](C)CO)C[C@H](C)[C@H](CN(C)Cc1ccc(C(=O)O)cc1)O2 | 4.0
-3.7 | -2.9 | i | -3.2 | C[C@H]1CN([C@@H](C)CO)C(=O)c2cc(-c3cccnc3)cnc2O[C@H]1CN(C)C | -3.9
0.2&-0.2 | 11.3&-0.8 | i | -0.2&0.5 | C[C@H](CO)N1C[C@H](C)[C@@H](CN(C)Cc2cccc3c2OCCCO3)OCc2cnnn2CCCC1=O | 7.9&9.0
-0.3 | -10.3 | i | -11.1 | CC(O)(c1ccc(F)c(F)c1)c1nc(-c2cccc(C(=O)O)c2)cs1 (configuration not stated) | -37.8
-2.0 | 2.6 | i | 1.1 | COc1ccc(NC(=O)N(C)C[C@@H]2Oc3ccc(NS(=O)(=O)c4c(C)noc4C)cc3CC(=O)N([C@@H](C)CO)C[C@H]2C)cc1 | 4.3

New compounds follow.
AF4-AF9 inh | rRNA inh HTS | FGF22 binding | rRNA inh HTS RFP | molecule | rRNA inh HTS OD600
1.6 | -2.6 | i | -0.8 | CC(C)C#Cc1ccc2c(c1)O[C@H](CN(C)C(=O)c1ccccn1)[C@@H](C)CN([C@H](C)CO)S2(=O)=O | -6.2
-6.4 | -8.7 | i | 2.6 | N#Cc1cccc(-c2ccc3c(c2)[C@@H]2[C@@H](CCN2S(=O)(=O)c2cccc(F)c2)[C@@H](CO)N3)c1 | 7.6
-5.6 | -39.2 | i | -7.6 | COc1cc(OC)c(NC(=O)c2cc3ccccc3cc2O)cc1Cl | -43.3
3.9 | -17.0 | i | 1.1 | CN(Cc1ccccc1)C(=O)c1ccc(Cc2cn(C)c3ccccc23)nc1 | -13.6
-2.0 | 9.3 | i | -5.5 | C#CCN(C[C@H]1[C@H](OC(=O)NCC2CCCCC2)[C@H](OC(=O)NCC2CCCCC2)C[C@H]2C(=O)N(c3ccccc3)C(=O)[C@@H]12)S(=O)(=O)c1ccc(C)cc1 | 6.3

Rewritten as a markdown table: part of the list above
| SMILES | AF4-AF9 inh | rRNA inh HTS | FGF22 binding | rRNA inh HTS RFP | rRNA inh HTS OD600 |
| --- | --- | --- | --- | --- | --- |
| CN(Cc1ccccc1)C(=O)c1ccc(Cc2cn(C)c3ccccc23)nc1 | 3.9 | -17.0 | i | 1.1 | -13.6 |
| N#Cc1cccc(-c2ccc3c(c2)[C@@H]2[C@@H](CCN2S(=O)(=O)c2cccc(F)c2)[C@@H](CO)N3)c1 | -6.4 | -8.7 | i | 2.6 | 7.6 |
| C#CCN(C[C@H]1[C@H](OC(=O)NCC2CCCCC2)[C@H](OC(=O)NCC2CCCCC2)C[C@H]2C(=O)N(c3ccccc3)C(=O)[C@@H]12)S(=O)(=O)c1ccc(C)cc1 | -2.0 | 9.3 | i | -5.5 | 6.3 |
| COc1cc(OC)c(NC(=O)c2cc3ccccc3cc2O)cc1Cl | -5.6 | -39.2 | i | -7.6 | -43.3 |
| CC(C)C#Cc1ccc2c(c1)O[C@H](CN(C)C(=O)c1ccccn1)[C@@H](C)CN([C@H](C)CO)S2(=O)=O | 1.6 | -2.6 | i | -0.8 | -6.2 |

Only part of the results is shown. The share of hits here may be higher or lower than overall.
